2A StopGo: lowers the luciferase signal of an FMDV 2A StopGo reporter | AID 1159524 | Potency, µM (top dose mostly 57.9 µM), inactives show at the highest dose signal change, negative = less light | human cells with a luciferase reporter of 2A StopGo recoding; control for the full effect not named in the record | actives 1.2% (n = 410,000); active = well fitted falling curve with a large enough effect; inconclusive = small, poorly fitted or top-dose-only effect; inactive = no such curve, though single readings can be large or run the other way; tested in HEK293T cells; further: on the % scale 0 is the no-effect control and ±100 the full control effect; nearly all actives have a fitted effect of over 45% in size; luciferase light after 4 h
NS1 function inh: influenza NS1 inhibition; S. cerevisiae slowed by influenza A NS1, growth recovery by OD600; actives 0.4% (n = 270,000); Potency, µM (doses to about 46.1 µM), for the others: at the highest dose activity, positive = more growth; further: actives are rising curves; nearly all actives have a fitted effect of over 50% in size
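Growth recovery, yeast-based: influenza A NS1 expressed in S. cerevisiae causes slow growth, and suppressors are detected by OD600. The parent strain without NS1 is used as positive control.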
Cruzain inh noDet: inhibitors of Trypanosoma cruzi cruzain without detergent; AID 1476; actives 2.3% (n = 200,000); purified cruzain, Z-FR-AMC fluorescence, no detergent; Potency, µM, inactives show max response, negative = inhibition, actives largely listed as inhibitors; P25779; active means well fitted curve in the direction sought with a large enough effect; inconclusive means small, poorly fitted or top-dose-only effect, or another doubt; inactive means no such curve, though single readings can be large; an effect the other way counts as inactive or inconclusive;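 further: plate controls were enzyme without inhibitor for no effect and buffer without enzyme for full effect; nearly all actives have a fitted effect of over 40% in size; top concentration of the series not given in the record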
Target sequence (P25779 123-467 limits assumed): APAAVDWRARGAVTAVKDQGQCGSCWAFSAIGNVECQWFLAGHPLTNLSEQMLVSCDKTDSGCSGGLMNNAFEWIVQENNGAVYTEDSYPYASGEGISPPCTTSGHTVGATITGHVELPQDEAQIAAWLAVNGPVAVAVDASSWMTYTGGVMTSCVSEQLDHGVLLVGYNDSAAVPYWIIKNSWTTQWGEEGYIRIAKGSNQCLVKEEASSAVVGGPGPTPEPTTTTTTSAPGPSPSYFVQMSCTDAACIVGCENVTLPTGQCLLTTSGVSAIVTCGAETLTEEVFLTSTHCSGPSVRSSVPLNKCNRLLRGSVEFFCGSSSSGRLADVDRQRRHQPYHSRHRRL
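Detergent-free condition (0.00005% Triton X-100) in acetate buffer pH 5.5 with DTT. 1.5 nM enzyme and compound were pre-mixed 15 min, then 2 uM Z-FR-AMC substrate added; reaction progress from fluorescence change between first and third reads (60 s).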
Cruzain Triton: cruzain (T. cruzi) inhibition with detergent; Potency, µM, for inactives: max response, negative = inhibition, most hits filed as inhibitors; actives 0.43% (n = 200,000); purified cruzain, Z-FR-AMC fluorescence, 0.01% Triton; active means well fitted curve in the direction sought with a large enough effect; inconclusive means small, poorly fitted or top-dose-only effect, or another doubt; inactive means no such curve, though single readings can be large; an effect the other way counts as inactive or inconclusive;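 further: plate controls were neutral wells for no effect and buffer without enzyme for full effect; nearly all actives have a fitted effect of over 40% in size; top concentration of the series not given in the record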
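Compounds were screened in titration against cruzain (1.5 nM) with 0.01% Triton X-100 to counter colloidal aggregation. Activity was the AMC fluorescence increase over 60 s after adding 2 uM Z-FR-AMC at pH 5.5.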
RE007 growth inh: less growth of the S. pombe RE007 Vpr strain. S. pombe RE007 Vpr strain, BacTiter-Glo ATP luminescence, 24 h; control for the full effect not named in the record. Potency, µM (doses to about 92.2 µM), for the others: at the top dose activity change, negative = less growth. actives 0.21% (n = 360,000). AID 651644; active = well fitted falling curve with a large enough effect; inconclusive = small, poorly fitted or top-dose-only effect; inactive = no such curve, though single readings can be large or run the other way;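 further: on the % scale 0 is the no-effect control and ±100 the full control effect; nearly all actives have a fitted effect of over 50% in size; the assay follows cell death caused by Vpr and the record does not say whether a fall means rescue or toxicity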
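Fission yeast strain RE007, carrying one chromosomally integrated HIV-1 vpr copy, was seeded at OD 0.01 in PMG+AL medium with 23 nL pinned compound. After 24 h at 30 °C and 99% humidity, viability was read by BacTiter-Glo luminescence.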
SARS PLP yeast: blocks SARS-CoV papain-like protease in a yeast assay | actives 0.19% (n = 330,000) | S. cerevisiae expressing SARS-CoV PLpro, growth rescue; control for the full effect not named in the record | Potency, µM (highest dose often 32.9 µM), inactives show top-dose activity, positive = growth rescue | AID 485353; further: 0% is about no effect; nearly all actives have a fitted effect of over 55% in size; growth read by luminescence after 48 h
MARV entry inh: blocks Marburg virus binding to or entry into cells; Marburg virus pseudotyped entry inhibition, cell reporter; control for the full effect not named in the record; about a third of the inactives were read at about 46 µM; Potency, µM (series often up to 37.8 µM), without a hit: top-dose activity change, negative = inhibition, most hits filed as inhibitors; actives 1.8% (n = 300,000); active = well fitted inhibition curve with a large enough effect; inconclusive = small, poorly fitted or top-dose-only effect, or effect the other way; inactive = flat fitted curve, though single readings scatter; tested in HEK293 cells; about a fifth of its hits are not listed in these tables; further: on the % scale 0 is the no-effect control and ±100 the full control effect; luciferase read-out
LASV entry inh: inhibitors of Lassa virus binding or cell entry | Potency, µM (titrated, usually from 37.9 µM), for the others: top-dose activity change, negative = inhibition, usual class: inhibitors | Lassa virus pseudotype entry inhibition, cell reporter; control for the full effect not named in the record | AID 540256 | actives 1.2% (n = 300,000); active means well fitted inhibition curve with a large enough effect; inconclusive means small, poorly fitted or top-dose-only effect, or effect the other way; inactive means flat fitted curve, though single readings scatter; tested in HEK293 cells; further: on the % scale 0 is the no-effect control and ±100 the full control effect; nearly all actives have a fitted effect of over 50% in size; luciferase read-out
* = called active by the depositor; ? = inconclusive; . = not tested or not shown; & = joins results of further samples; [ ] = remark or other dose. Unless noted, the call rests on the fitted dose curve; in most records, active means well fitted rising curve with a large enough effect; inconclusive means small, poorly fitted or top-dose-only effect; inactive means no such curve, though single readings can be large or run the other way. Potency means the concentration at half of the fitted maximal effect.

SMILES	2A StopGo	NS1 function inh	Cruzain inh noDet	Cruzain Triton	RE007 growth inh	SARS PLP yeast	MARV entry inh	LASV entry inh
COc1ccccc1NC(=O)CC1S/C(=N/N=C(\C)C2CCCCC2)NC1=O (stereo not drawn)	-16%	-48%	.	.	5%	-6%	.	.
COc1ccc(-c2cc(C3CC3)nc(SCC(=O)c3cccs3)c2C#N)cc1	-12%	9%	?	-1.7%	0%	1%	-4%	-5%
CC1Oc2ccccc2C=C1/C=N/NC(=O)[C@@H](C)NC(=O)OC(C)(C)C (stereo partly drawn)	?	4%	.	.	7%	2%	?	-18%
O=[N+]([O-])c1ccc(Cc2ccccn2)c([N+](=O)[O-])c1	-9%	.	.	.	-1%	.	1%	-4%
C[C@H]1CN=C(Nc2ccccc2)N1CCC1CCCC1	-22%	-14%	.	.	-18%	-2%	.	.
CC1CCCN(CCOc2cccc(Oc3ccccc3)c2)C1 (stereo not drawn)	-6%	-38%	.	.	-12%	-5%	.	.
O=C(NCc1ccc(F)cc1Cl)C1CC(=O)N(C2CCCCCCC2)C1 (stereo not drawn)	17%	-3%	.	.	-4%	9%	.	.
N#CNC(=Nc1cccc(Cl)c1)Oc1ccccc1	-29%	-31%	.	.	0%	-4%	.	.
Cc1ccc(SCC(=O)N2c3ccccc3Sc3ccccc32)cc1	?	8%	-23%	-4.9%	16%	-21%	?	?
CCN(CC)S(=O)(=O)c1cc(NC(=O)C(C)OC(=O)c2[nH]c(C)c(C(C)=O)c2C)ccc1C (stereo not drawn)	?	-36%	?	-5.5%	3%	5%	?	?
CC(=O)C(C)Oc1ccc(Cc2ncc(C(F)(F)F)cc2Cl)cc1 (stereo not drawn)	-19%	3%	.	.	-10%	-1%	-17%[46.1 µM]	.
Cc1ccc(OCC(=O)NN2C(=O)c3ccccc3C2=O)c(C)c1	11%	15%	1%	-1.0%	1%	-2%	-16%	8%
CN(C)S(=O)(=O)c1cccc(-c2nnc(-c3ccccc3)o2)c1	15%	-6%	4%	-3.5%	2%	3%	?	7%
COC(=O)[C@H](CCSC)NC(=O)N1CCN(c2cccc(C(F)(F)F)c2)CC1	?	-24%	8%	-4.0%	20%	2%	-5%	-23%
CCN(CC)CCCNC(=O)c1nn(-c2cccc(OC)c2)c(=O)c2ccccc12	-6%	-3%	-5%	3.5%	-5%	-1%	-24%	-1%
CN(C(=O)CSc1cc(Cl)ccc1Cl)C1CCS(=O)(=O)C1 (stereo not drawn)	-1%	.	.	.	3%	-2%	14%	-8%
COc1ccc(NS(=O)(=O)c2cccc(NC(=O)c3cnccn3)c2)cc1Br	3%	-15%	.	.	-4%	4%	?	?
COc1ccc(CCNC(=O)c2cc(=O)n(C)c(=O)n2C)cc1OC	-12%	.	.	.	-5%	1%	20%[46.1 µM]	-18%
Cc1cc(NC(=O)c2ccco2)no1	21%	-3%	2%	6.0%	-1%	-4%	6%	10%
CC(C)NC(=O)c1sc(=S)n2c1[nH]c(=O)c1ccc(C(=O)NCCc3ccc(Cl)cc3)cc12	?	-7%	.	.	0%	-5%	.	.
COc1ccc(OC(=O)c2cc(-c3ccc4c(c3)OCCO4)on2)cc1	5%	.	-3%	-0.7%	.	.	-9%[46.1 µM]	19%[46.1 µM]
COc1cccc(/C=N/Nc2ncnc3scc(-c4ccccc4)c23)c1OC	?	15%	18%	-8.5%	-2%	7%	-19%	?
Cc1ccccc1SCC(=O)Nc1ccc(N2CCOCC2)cc1	27%	.	.	.	-3%	-4%	8%[46.1 µM]	.
O=c1[nH]c2c(cc1CNCCN1CCOCC1)c(-c1cccc(F)c1)nn2-c1ccccc1	.	-32%	9%	-6.3%	.	2%	.	.
COc1cccc(-c2noc(Cn3nc(C)c([N+](=O)[O-])c3C)n2)c1	17%	?	-4%	-13%	10%	?	-14%	3%
COc1ccc(C(NC(=O)/C=C/c2ccco2)c2ccc(OC)cc2)cc1	18%	16%	-2%	-14%	9%	2%	?	?
Cc1ccc(NC(=O)CN(C)C(=O)/C=C/c2cccc(F)c2)cc1	3%	-4%	.	.	-10%	2%	0%[46.1 µM]	-1%
CCn1c(-c2cccnc2Cl)nc2cc(Cl)c(Cl)cc21	16%	-29%	-5%	-5.3%	1%	-1%	-23%	-1%
O=S(=O)(Cc1cc(-c2ccccc2)no1)c1ccccc1	30%	-2%	.	.	-2%	1%	?	-1%[46.1 µM]
O=C(O)CSCC(=O)Nc1ccccn1	1%	6%	.	.	7%	-1%	8%[46.1 µM]	0%
O=C(CN1CCN(S(=O)(=O)c2ccc(F)c(Cl)c2)CC1)N1CCc2ccccc21	-23%	.	.	.	14%	1%	-1%	-4%
O=C(Nc1ccc(CN2CCOCC2)cc1)c1ccc2ccccc2c1	-25%	-2%	.	.	21%	8%	-24%	3%
COc1ccc(C(=O)COC(=O)CN2CC(=O)Oc3ccccc32)cc1Br	-25%	-49%	?	-1.7%	?	-27%	-25%[46.1 µM]	?
COc1cccc2c1ncc1c(-c3ccc(C)cc3)nn(-c3ccc(F)cc3)c12	-7%	.	-5%	-0.9%	.	.	.	6%[46.1 µM]
CC(C)(C)NC(=O)C(c1ccc(Cl)cc1)N(CCO)C(=O)c1snc(C(N)=O)c1N (stereo not drawn)	7%	9%	.	.	17%	8%	.	.
CCOC(=O)c1c(C)[nH]c(C)c1S(=O)(=O)N1CCCC(C(=O)NCc2ccc(Cl)cc2)C1 (stereo not drawn)	56%[activator]	.	?	0.2%	.	.	.	11%[46.1 µM]
CCc1cccc(NC(=O)CSc2ncccc2C(=O)Oc2ccccc2Cl)c1	-3%	.	-18%	0.0%	.	.	.	-2%[46.1 µM]
Cc1nonc1NC(=O)CSc1nc2cc(Cl)ccc2c2c1CCCC2	-10%	-2%	?	-4.2%	15%	-1%	?	-16%
C=C(C)CNC(=S)N/N=C/c1ccc(NC(C)=O)cc1	-14%	5%	.	.	-3%	-2%	10%[46.1 µM]	?
CN(Cc1ccccc1)C(=O)COC(=O)C12CC3CC(CC(Br)(C3)C1)C2	-4%	.	.	.	2%	1%	2%	-10%
O=C(COc1ccc(C(=O)c2ccc(F)cc2)cc1)NCc1ccc(F)cc1	-28%	-3%	2%	-7.3%	-6%	24%	-24%	?
CC(=O)c1ccc(NS(=O)(=O)c2ccc3[nH]c(=O)[nH]c3c2)cc1	78%[activator]	.	-2%	-0.5%	.	.	.	18%[46.1 µM]
CCOc1ccc(NC(=O)CC2C(=O)N(c3cccc(C)c3)C(=O)N2CCC2=CCCCC2)cc1 (stereo not drawn)	0%	.	2%	-2.2%	.	.	?	?
COC(=O)c1ccc(/C=N\N2CCN(Cc3ccc(C)cc3)CC2)cc1	-22%	-1%	-1%	-1.8%	-11%	5%	-9%	-3%
Cc1ccc(NC(=O)CN2C(=O)S/C(=C\c3cccn3-c3cccc(C(=O)O)c3)C2=O)cc1C	-5%	1%	.	.	-7%	1%	3%[46.1 µM]	0%
COc1ccc(CCNC(=O)CCN2C(=O)COc3ccccc32)cc1OC	.	-13%	-3%	6.4%	8%	-1%	-8%	3%
Cc1nc2ccc(NC(=O)NC(=O)c3c(Cl)cccc3Cl)cc2o1	46%[activator]	-4%	.	.	-1%	-1%	5%[46.1 µM]	-13%[46.1 µM]
O=C(c1ccc(CS(=O)(=O)c2ccc(Br)cc2)o1)N1CCC2(CC1)OCCO2	9%	5%	4%	3.6%	-8%	-2%	-1%&-1%	0%
OC(CCN1CCC2(CC1)OCCO2)C(F)(F)F (stereo not drawn)	-5%	.	.	.	1%	1%	-12%[46.1 µM]	-3%
Cc1cc(C(=O)N2CCCC(C(=O)c3cc(F)ccc3F)C2)c(C)o1 (stereo not drawn)	0%	-3%	.	.	2%	-1%	?	-5%[46.1 µM]

The listing continues.
SMILES	2A StopGo	NS1 function inh	Cruzain inh noDet	Cruzain Triton	RE007 growth inh	SARS PLP yeast	MARV entry inh	LASV entry inh
CCN(CC)S(=O)(=O)c1ccc2[nH]cc(C(=O)NCCc3ccc(OC)c(OC)c3)c(=O)c2c1	-7%	-1%	18%	-2.1%	20%	6%	-12%&-12%	?
Cc1c(Cl)cccc1NC(=S)NCC(C)C	20%	-14%	3%	-1.0%	-2%	?	0%[46.1 µM]	?
O=C(c1ccc2c(c1)N(Cc1ccccc1F)C(=O)c1ccccc1S2(=O)=O)N1CCC(Cc2ccccc2)CC1	1%	.	-4%	-0.5%	.	.	-7%[46.1 µM]	18%[46.1 µM]
CC1CCC(C(C)C)C(OC(=O)COC(=O)c2ccccc2N)C1 (stereo not drawn)	?	-42%	?	-22%	2%	-24%	-4%	?
COc1ccccc1C(=O)NC1(C(F)(F)F)NC(=O)N(CCc2ccccc2)C1=O (stereo not drawn)	17%	.	0%	-7.2%	.	.	25%[46.1 µM]	-17%[46.1 µM]
O=C(Nc1ccccc1N1CCOCC1)c1cc(Cl)c2c(c1)OCO2	-13%	.	.	.	35%	-2%	-35%	-6%
COc1ccc(Cl)cc1N/C(N)=N/c1nc(C)cc(C)n1	21%	4%	.	.	-3%	0%	-8%[46.1 µM]	?
FC(F)(F)c1ccc2c(c1)ncc1c(-c3ccccc3)nn(-c3ccccc3)c12	-19%	.	3%	-2.8%	.	.	?	1%[46.1 µM]
COc1cc(NS(=O)(=O)c2ccc(NC(=S)NC(=O)COc3ccccc3OC)cc2)nc(OC)n1	69%[activator]	?	.	.	14%	1%	.	.
COc1cccc(OC)c1C(=O)NNC(=O)c1ccccc1-n1cccc1	-9%	.	.	.	1%	0%	9%[46.1 µM]	12%[46.1 µM]
Cc1ccccc1C(=O)NCC(=O)Nc1ccccc1C(F)(F)F	10%	2%	.	.	-3%	0%	5%[46.1 µM]	6%[46.1 µM]
CC(=O)c1ccc(N2CCN(C3C(=O)c4ccccc4N3C(C)=O)CC2)cc1 (stereo not drawn)	14%	.	7%	-1.3%	.	.	.	-1%[46.1 µM]
CCOC(=O)c1c(NC(=O)Cn2nnc3ccccc32)sc2c1CCC(C)C2 (stereo not drawn)	-25%	?	-20%	-3.4%	2%	-13%	?	-35%
COc1ccc(C2C(=O)NN=C2C)cc1 (stereo not drawn)	-15%	.	.	.	20%	.	?	10%
Cc1ccc(-n2nnnc2SCC(=O)Nc2ccc3c(c2)COC3=O)cc1C	22%	8%	-3%	-1.1%	1%	-6%	-3%[46.1 µM]	-3%

Screening data deposited in PubChem by National Center for Advancing Translational Sciences (NCATS).

Random draw from the library; about 4.6% have a hit in one of these screens.
